MLL AF4-AF9 inh – inhibitors of AF4 peptide binding to AF9, primary screen, biochemical, AlphaScreen, biotin-AF4 peptide, FLAG-AF9, single point. inhibition, % at 10 µM. 350,000 tested, 0.47% active. Protein AF-9 (Homo sapiens), P42568. AID 651704, 2012;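 active means every replicate reaching a set inhibition limit, whatever the replicate mean, cut at about 25% in these data; inconclusive means mean inhibition reaches that limit but some replicates miss it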;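 further: 0% = plate neutral control median and 100% = total signal loss; the record names both 10 and 1 µM as test concentration; the first replicate is given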
Ecoli rRNA inh – reduced GFP signal of wild-type E. coli, primary screen, bacterial rRNA inhibitor project, GFP/RFP fluorescence, OD600, single point; GFP signal change (wild-type ribosome), % (concentration not given with the values); E. coli WT GFP vs humanized-ribosome RFP mutants, 24 h; stronger effect = lower value; DMSO median 0, no signal -100; 350,000 tested, 1.6% active; AID 720706, 2013;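 active means significant combined selectivity score with lowered wild-type GFP, culture density cut under 30%, mutant RFP and density less affected; inactive means any of these conditions unmet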; further: one replicate is shown; some compounds called inactive have numbers as strong as hits
Vif TR-FRET – inhibitors of Vif binding to APOBEC3G peptide, primary screen, biochemical, TR-FRET, GST-Vif 1-94, biotin-A3G peptide, dose response retest (AID 1117319). Virion infectivity factor (Human immunodeficiency virus type 1 group M subtype B (isolate …. TR-FRET GST-Vif / biotin-A3G peptide binding; higher % means a stronger effect; test concentration not given here; strong numbers were not always called active. one-dose inhibition, %; IC50 in µM for titrated hits. 260,000 tested, 0.57% active;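 active means above the screen mean plus three standard deviations and confirmed in dose response; inconclusive means results disagree or hit not tested in dose response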;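 further: Vif residues 1-94 fused to GST binding biotinylated APOBEC3G peptide 110-148; 0% = full assay without inhibitor and 100% = GST in place of GST-Vif; retest series ran down from 100 µM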
FGF22 binding – binders of human FGF22 protein, primary screen, FGF22 synaptogenesis inhibitor project, biophysical, thermal shift, single point | Fibroblast growth factor 22 (Homo sapiens), Q9HCT0 | AID 651658, 2012 | recombinant FGF22 thermal shift, SYPRO orange fluorescence; percent of sucrose octasulfate shift, DMSO zero | calls only at 9.99 µM | 340,000 tested, 1.5% active;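 active means melting point raised past a set limit in the mean and every replicate; inconclusive means no clear call; three in four hits are not shown here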
Target sequence (Q9HCT0 whole entry, looked up): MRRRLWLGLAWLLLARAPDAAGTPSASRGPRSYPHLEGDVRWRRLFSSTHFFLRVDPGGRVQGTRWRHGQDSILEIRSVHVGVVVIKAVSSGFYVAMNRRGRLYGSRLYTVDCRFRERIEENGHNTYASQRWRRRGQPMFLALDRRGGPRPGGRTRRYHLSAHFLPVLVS
HNF4A DNA FP – change in binding of human HNF4A to DNA, primary screen, biochemical, fluorescence polarization, FITC-DNA; Hepatocyte nuclear factor 4-alpha (Homo sapiens), P41235; 1 h; activity change, % at 10 µM; 360,000 tested, 0.3% active; AID 1224865, 2016; in the data active means activity change above about 30%, passing the limit was not always enough;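 further: controls were the assay level and a saturating level of protein; the project sought stronger binding though the title names inhibitors; some compounds called inactive have numbers as strong as hits; positive values seem to mean higher polarization but the record does not say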
Target sequence (P41235 whole entry, looked up): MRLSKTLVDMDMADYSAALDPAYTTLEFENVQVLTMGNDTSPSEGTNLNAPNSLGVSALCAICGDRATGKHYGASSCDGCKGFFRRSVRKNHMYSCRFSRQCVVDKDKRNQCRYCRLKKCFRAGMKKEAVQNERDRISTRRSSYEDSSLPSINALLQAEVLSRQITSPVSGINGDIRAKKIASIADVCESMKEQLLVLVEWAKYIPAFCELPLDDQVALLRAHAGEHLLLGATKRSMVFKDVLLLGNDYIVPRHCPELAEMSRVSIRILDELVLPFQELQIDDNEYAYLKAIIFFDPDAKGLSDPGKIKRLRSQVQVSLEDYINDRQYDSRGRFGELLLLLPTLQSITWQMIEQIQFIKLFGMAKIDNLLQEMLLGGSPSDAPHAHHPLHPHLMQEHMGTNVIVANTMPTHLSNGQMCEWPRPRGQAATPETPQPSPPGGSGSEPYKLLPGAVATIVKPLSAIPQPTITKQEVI
ALR H2O2 inh – inhibitors of human ALR sulfhydryl oxidase, primary screen, biochemical, H2O2 detection, HRP-luminol luminescence, single point. purified ALR, DTT oxidation. inhibition, % (concentration not given with the values). 290,000 tested, 3.8% active. AID 485317, 2010;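 active means mean and each replicate at 75% or more; inconclusive means only one of the two met; inactive means neither met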;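 further: stock transfer was 7.5 nL into about 7.5 µL; 0% = neutral wells and 100% = wells with inactivated enzyme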
Target sequence (P55789 whole entry, looked up): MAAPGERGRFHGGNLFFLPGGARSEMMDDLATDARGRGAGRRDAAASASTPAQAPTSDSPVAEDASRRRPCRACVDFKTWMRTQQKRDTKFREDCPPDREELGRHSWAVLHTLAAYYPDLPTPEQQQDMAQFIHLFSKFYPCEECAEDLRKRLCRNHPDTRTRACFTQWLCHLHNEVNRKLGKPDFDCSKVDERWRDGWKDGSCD
Ecoli growth – E. coli growth inhibition, primary screen, OD600; Escherichia coli growth, 23 h; stronger effect = lower value; OD600 absorbance (test concentration not listed); 330,000 tested, 0.21% active;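 active means OD600 absorbance below the run mean of sample wells minus 3.6 SD, in any replicate, cut at about 0.56 in these data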;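 further: stock transfer was 300 nL into about 60 µL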
Ecoli rRNA inh OD600 – also measured in Ecoli rRNA inh; calls as there; OD600 change, %; measured here: OD600 growth;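 optical density of the mix in the first replicate; 0 = DMSO median and -100 = no signal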
Ecoli rRNA inh RFP – second read-out of Ecoli rRNA inh, no call of its own (marks repeat the call); RFP signal change, %; measured here: RFP humanized mutant strains;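 first replicate; 0 = DMSO median and -100 = no signal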
The depositor's hits bear a star; i = inactive; ? = inconclusive; nt = not tested or not shown; & = joins results of further samples.

The line under a structure holds: MLL AF4-AF9 inh | Ecoli rRNA inh | Ecoli rRNA inh OD600 | Ecoli rRNA inh RFP | Vif TR-FRET | FGF22 binding | HNF4A DNA FP | ALR H2O2 inh | Ecoli growth
> Nc1ccc(Cl)cc1
  nt | 8 | 7 | -1.9 | nt | i | nt | nt | nt
> COC(=O)C1C(c2ccc(F)cc2)CC2CCC1N2C (stereo not drawn)
  nt | 3 | 6 | 1.0 | nt | i | nt | nt | nt
> C=CCN1CC[C@]23c4c5ccc(O)c4OC2C(=O)CC[C@@]3(O)[C@H]1C5 (stereo partly drawn)
  nt | 5 | 9 | 4.6 | nt | i | nt | nt | nt
> COC(=O)C[C@H]1CC[C@@H]2NC[C@H](O)COC[C@H]2O1
  nt | 1 | 1 | 0.2 | nt | i | nt | nt | nt
> C[C@H]1CNCCN1c1ccc(N2CC[C@@H](O)C2)c(C#N)c1
  nt | 19 | 11 | -0.4 | nt | i | nt | nt | nt
> COC(=O)C1C(c2ccc(Cl)cc2)CC2CCC1N2C (stereo not drawn)
  nt | 4 | 11 | 0.4 | nt | i | nt | nt | nt
> COc1cccc(-c2ccc([C@@H]3[C@H]4CN(C(=O)Cc5ccncc5)CCCCN4[C@H]3CO)cc2)c1
  nt | -3 | -14 | 2.6 | nt | i | nt | nt | nt
> CN1C2CCC1CC(OC(c1ccccc1)c1ccc(Cl)cc1)C2 (stereo not drawn)
  nt | -53 | -78 | -1.2 | nt | i | nt | nt | nt
> C/C=C/c1ccc(C2[C@@H]3CN(Cc4cccnc4)C[C@H]2N3)cc1 (stereo partly drawn)
  14&7.3 | 3&0 | 11&15 | 2.1&-0.6 | nt | nt | nt | nt | nt
> COC(=O)[C@@H]1[C@@H](CO)[C@@H]2Cn3c(ccc(-c4cccc(C(=O)N(C)C)c4)c3=O)[C@H]1N2CC1CC1
  -0.9 | 2 | -2 | 2.1 | nt | nt | nt | nt | nt
> COC(=O)[C@H]1[C@H](CO)[C@H]2Cn3c(ccc(-c4cccnc4)c3=O)[C@@H]1N2S(=O)(=O)c1ccccc1C
  1.5 | -1 | -2 | -3.4 | nt | nt | nt | nt | nt
> O=C(O)[C@H]1[C@H](CO)[C@H]2Cn3c(ccc(-c4ccncc4)c3=O)[C@@H]1N2C(=O)C1CCCC1
  -15 | -2 | -10 | -5.0 | nt | nt | nt | nt | nt
> OC[C@H]1Nc2ccc(C#Cc3cccnc3)cc2[C@H]2NCC[C@H]21
  13 | 5 | 15 | -2.8 | nt | nt | nt | nt | nt
> COC(=O)[C@H]1[C@H](CO)[C@H]2Cn3c(ccc(C4=CCCCC4)c3=O)[C@@H]1N2Cc1ccccc1OC
  2.1 | -6 | -12 | 0.8 | nt | nt | nt | nt | nt
> CN1CC=C(/C=C/c2ccc(-c3ccccc3)cc2)CC1
  nt | nt | nt | nt | nt | nt | nt | -7 | 0.6
> CCCCC/C=C\C/C=C\C/C=C\C/C=C\CCCC(=O)Nc1ccc(O)cc1
  nt | nt | nt | nt | -2% | nt | nt | -6 | nt
> N[C@@H](Cc1cc(Br)c(O)c(Br)c1)C(=O)O
  nt | nt | nt | nt | ? | nt | nt | 16 | nt
> CN1C(=O)N(C)C(=O)C2(Cc3cc(N)ccc3N3CCN(c4ccccc4F)CC32)C1=O (stereo not drawn)
  nt | nt | nt | nt | 2% | nt | nt | -17 | nt
> Oc1c(Br)cc(Br)cc1Oc1ccc(Br)cc1Br
  nt | nt | nt | nt | ? | nt | nt | 30 | nt
> Cc1ccc2c(c1)=C/C(=C\c1c(O)[nH]c(=S)[nH]c1=O)C(=O)N=2
  nt | nt | nt | nt | 30% | nt | nt | 97* | nt

Further compounds
The line under a structure holds: MLL AF4-AF9 inh | Ecoli rRNA inh | Ecoli rRNA inh OD600 | Ecoli rRNA inh RFP | Vif TR-FRET | FGF22 binding | HNF4A DNA FP | ALR H2O2 inh | Ecoli growth
> COc1ccc(/C=C2/C(=O)NC(=O)N(C3CCCCC3)C2=O)cc1CSc1ccccn1
  nt | nt | nt | nt | 7% | nt | nt | 5 | nt
> CCOC(=O)c1ccc(NC(=O)C2C3C=CC(O3)C2C(=O)O)cc1 (stereo not drawn)
  nt | nt | nt | nt | -8% | nt | nt | -2 | nt
> COc1cc(N)c(Cl)cc1C(=O)NC1CN2CCC1CC2 (stereo not drawn)
  nt | nt | nt | nt | -6% | nt | nt | -1 | nt
> Oc1ccc2c3c1O[C@H]1c4[nH]c5ccccc5c4C[C@@]4(O)C(C2)N(CC2CC2)CC[C@]314
  nt | nt | nt | nt | -3% | nt | nt | 73 | nt
> O=[N+]([O-])c1cc(-c2ccc([As](=O)(O)O)cc2)ccc1[As](=O)(O)O
  nt | nt | nt | nt | 21% | nt | nt | -11 | nt
> CC(=O)O[C@H]1CC[C@@]2(C)C(=CC[C@@H]3[C@@H]2CC[C@]2(C)C(=O)CC[C@@H]32)C1
  nt | nt | nt | nt | nt | nt | 1.0 | -5 | nt
> CC1=CC(=O)OC2CC3OC4C[C@@H](C)C5OC6CC7O[C@]8(C)C/C=C\C9OC%10CC%11OC(CC(C)C%12OCCO%12)CC(O)[C@]%11(C)OC%10CC9OC8C[C@]7(C)O[C@]6(C)CCC5OC4C[C@]3(C)OC12 (stereo partly drawn)
  nt | nt | nt | nt | nt | nt | -1.4 | -4 | nt
> CC(=O)OC(C)(C)/C=C/C(=O)[C@](C)(O)C1[C@H](O)C[C@@]2(C)C3CC=C4C(C[C@H](O)C(=O)C4(C)C)[C@]3(C)C(=O)C[C@]12C (stereo partly drawn)
  nt | nt | nt | nt | nt | nt | 1.0 | 4 | nt
> COC(=O)C1=C(c2ccc(Cl)c(C(F)(F)F)c2)C[C@@H]2CC[C@H]1N2C(=O)NCCOc1ccc(OC)cc1
  nt | nt | nt | nt | nt | nt | 1.8 | -8 | nt
> O=C(O)c1cc[c]([Hg][Cl])cc1
  nt | nt | nt | nt | nt | nt | 0.7 | ? | nt
> CCN1C[C@@]2(COC)C3[C@@H](OC)[C@H]4[C@@H]1[C@@]3(C1C[C@@]3(O)[C@H](OC(=O)c5ccccc5)C1[C@]4(OC(C)=O)[C@@H](O)[C@H]3OC)[C@@H](OC)C[C@H]2O (stereo partly drawn)
  nt | nt | nt | nt | nt | nt | 3.6 | -35 | nt
> C[C@H]1[C@H](OC(=O)CCC(=O)NCc2ccc(C(=O)O)cc2)O[C@@H]2O[C@@]3(C)CC[C@H]4[C@H](C)CC[C@@H]1C24OO3
  nt | nt | nt | nt | nt | nt | -0.6 | -16 | nt
> O=C1NC(=O)C(=Cc2ccc(-c3ccc(Cl)cc3)o2)C(=O)N1
  nt | nt | nt | nt | nt | nt | 4.8 | 94* | nt
> O=P(/C=C1\OCc2ccccc21)(Oc1ccccc1)Oc1ccccc1
  nt | nt | nt | nt | nt | i | 2.4 | nt | nt
> COCCNP(=O)(c1ccccc1)c1nc2ccccc2s1 (stereo not drawn)
  nt | nt | nt | nt | 15% | nt | nt | nt | 0.71
> CCCC[C@@H](C)C[C@@H](C)C(=O)N(C)[C@@H](CC(C)C)C(=O)N[C@H](C(=O)N(C)[C@H](C(=O)N1C[C@@H](O)C[C@H]1C(=O)N1C(=O)C=C[C@@H]1C)C(C)C)C(C)OC(C)=O (stereo partly drawn)
  nt | nt | nt | nt | nt | nt | -2.7 | nt | 0.68
> CC[C@H](C)/C=C(C)/C=C/C1=CC2=C(Cl)C(=O)[C@](C)(OC(C)=O)C(=O)C2=CO1
  nt | nt | nt | nt | nt | nt | -5.7 | nt | 0.69
> COc1ccc(CCNC(=O)COC(=O)Cc2ccccc2)cc1
  nt | nt | nt | nt | nt | nt | -0.1 | nt | 0.69
> CC[C@H]1CN2CC[C@@]3(C(=O)Nc4ccccc43)[C@@H]2C[C@@H]1/C(=C\OC)C(=O)OC
  nt | nt | nt | nt | nt | nt | -5.5 | nt | 0.73
> CC(C)n1c(O)c(C2c3cc(Cl)ccc3Oc3[nH]c(=O)n(C(C)C)c(=O)c32)c(=O)[nH]c1=O (stereo not drawn)
  nt | nt | nt | nt | nt | nt | -4.6 | nt | 0.7

Profiles, quoted from the list.
`N[C@@H](Cc1cc(Br)c(O)c(Br)c1)C(=O)O` reads MLL AF4-AF9 inh: nt; Ecoli rRNA inh: nt; Ecoli rRNA inh OD600: nt; Ecoli rRNA inh RFP: nt; Vif TR-FRET: ?; FGF22 binding: nt; HNF4A DNA FP: nt; ALR H2O2 inh: 16; Ecoli growth: nt
`COC(=O)C[C@H]1CC[C@@H]2NC[C@H](O)COC[C@H]2O1` reads MLL AF4-AF9 inh: nt; Ecoli rRNA inh: 1; Ecoli rRNA inh OD600: 1; Ecoli rRNA inh RFP: 0.2; Vif TR-FRET: nt; FGF22 binding: i; HNF4A DNA FP: nt; ALR H2O2 inh: nt; Ecoli growth: nt

Remaining list, next part:
The line under a structure holds: MLL AF4-AF9 inh | Ecoli rRNA inh | Ecoli rRNA inh OD600 | Ecoli rRNA inh RFP | Vif TR-FRET | FGF22 binding | HNF4A DNA FP | ALR H2O2 inh | Ecoli growth
> O=C1/C(=C/c2ccccc2)C[C@@]2(O)[C@H]3Cc4ccc(O)c5c4[C@@]2(CCN3CC2CC2)C1O5 (stereo partly drawn)
  nt | nt | nt | nt | nt | nt | -0.4 | nt | 0.75
> CN(C)S(=O)(=O)c1cc(NC(=O)COC(=O)Cc2ccccc2)ccc1Cl
  nt | nt | nt | nt | nt | nt | -1.8 | nt | 0.7
> COC(=O)C1C2CC[C@@H](CC1OC(=O)c1ccccc1)N2 (stereo partly drawn)
  nt | nt | nt | nt | nt | nt | 1.6 | nt | 0.73
> CC(=O)O[C@H]1C[C@@H]2CC[C@@H]3[C@H](CC[C@]4(C)C(=O)CC[C@@H]34)[C@@]2(C)C[C@@H]1OC(C)=O
  nt | nt | nt | nt | nt | nt | 4.1 | nt | 0.69
> COC(=O)C1C2c3ccccc3OC1(C)N=c1s/c(=C/c3cnn(C)c3C)c(=O)n12 (stereo not drawn)
  nt | nt | nt | nt | 3%&2% | nt | -0.4 | nt | nt
> CC(/C=N/NC(=O)c1n[nH]c2c1CCC2)=C\c1ccccc1
  nt | nt | nt | nt | ? | nt | 0.3 | nt | nt
> C=C1CC[C@@]2(O)[C@H]3Cc4ccc(O)c5c4[C@@]2(CCN3CC2CC2)[C@H]1O5
  nt | nt | nt | nt | ? | nt | -5.9 | nt | nt
> COc1cc2cc(C(=O)N3CC(COS(C)(=O)=O)c4ccc(O)cc43)[nH]c2c(OC)c1OC (stereo not drawn)
  nt | nt | nt | nt | -8% | nt | -1.2 | nt | nt
> CC(=O)OC(C)(C)/C=C/C(=O)[C@](C)(O)[C@H]1[C@H](O)C[C@@]2(C)[C@@H]3CC=C4[C@H](C[C@H](O)C(=O)C4(C)C)[C@]3(C)C(=O)C[C@]12C
  nt | nt | nt | nt | 24% | nt | 0.0 | nt | nt
> CC(=O)OC1C2(CC3N4C(=O)C5(CO)SSC4(CC31O)C(=O)N5C)OC(C)C(C)(C)C2=O (stereo not drawn)
  nt | nt | nt | nt | 16% | nt | 12 | nt | nt

Screening results as filed in PubChem.

A portion of the library; the hit share may differ from the screen's.
